Screening results: PubChem, several laboratories
Mtb H37Rv: M. tuberculosis H37Rv growth inhibitors, H37Rv strain (AID 1626). inhibition, % at 10 µM, or IC50 in µM where a hit was titrated. hit rate 0.95% among 220,000. M. tuberculosis H37Rv growth inhibition; higher % means a stronger effect;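 active = confirmed in a dose series; inconclusive = inhibition above 80% but not taken into the dose series; inactive = below 80% or under 30% at every dose of the series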;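 also: bacteria incubated seven days before Alamar blue readout; 0% = bacteria only wells and 100% = bacteria with antibiotic wells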
Mtb betalactam: beta-lactam sensitization of Mtb H37Rv, H37Rv; hit rate 0.27% among 330,000; AID 434955, 2010; inhibition, % at 25 µM; M. tuberculosis H37Rv growth with meropenem, percent inhibition; hits of this screen are not shown here;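 active = about 74% or more and at least 40 points above the plate without the antibiotic, then above 30% in a dose series; inconclusive = first-round hits that could not be retested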;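 also: growth measured after seven days incubation then overnight dye step; 0% = bacteria only wells and 100% = bacteria with antibiotic; twin plates without the antibiotic show which effects depend on it; some results filed as inactive read as strong as hits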
RecA intein inh: Mtb RecA intein splicing inhibitors, primary screen, biochemical, fluorescence, HTS. cell-free RecA intein splicing. Protein RecA (Mycobacterium tuberculosis (strain ATCC 25618 / H37Rv)), P9WHJ3. inhibition, %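 (about 9 µM by stock and volumes)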. hit rate 0.75% among 290,000; in the data active = inhibition above about 30%; inconclusive = no clear call, values can overlap the other calls;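 also: 0% = vehicle wells and 100% = reference inhibitor control wells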
Target sequence (P9WHJ3 whole entry, looked up): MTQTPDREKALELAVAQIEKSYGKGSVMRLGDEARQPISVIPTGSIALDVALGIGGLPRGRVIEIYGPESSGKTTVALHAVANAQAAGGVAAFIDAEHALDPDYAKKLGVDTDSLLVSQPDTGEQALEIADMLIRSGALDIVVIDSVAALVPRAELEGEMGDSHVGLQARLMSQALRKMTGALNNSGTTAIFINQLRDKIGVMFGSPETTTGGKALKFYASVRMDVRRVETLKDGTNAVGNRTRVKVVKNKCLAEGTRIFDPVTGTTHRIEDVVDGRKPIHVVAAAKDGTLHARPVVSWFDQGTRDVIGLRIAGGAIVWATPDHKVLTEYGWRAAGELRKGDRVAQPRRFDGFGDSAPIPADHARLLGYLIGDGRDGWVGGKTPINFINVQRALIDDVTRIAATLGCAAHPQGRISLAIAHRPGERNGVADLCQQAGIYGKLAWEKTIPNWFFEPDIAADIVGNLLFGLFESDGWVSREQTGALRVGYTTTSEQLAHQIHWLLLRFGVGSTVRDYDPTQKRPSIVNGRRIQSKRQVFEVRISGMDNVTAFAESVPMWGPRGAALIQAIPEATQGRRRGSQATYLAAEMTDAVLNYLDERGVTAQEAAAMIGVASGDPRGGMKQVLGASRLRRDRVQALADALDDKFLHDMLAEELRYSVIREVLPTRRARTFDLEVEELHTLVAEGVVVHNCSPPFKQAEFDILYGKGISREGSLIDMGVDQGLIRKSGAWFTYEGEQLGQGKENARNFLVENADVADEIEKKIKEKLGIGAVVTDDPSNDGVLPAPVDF
YopH PTP inh: YopH tyrosine phosphatase inhibitors, primary screen, biochemical, fluorescence Ex485/Em525; inhibition, %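 (about 10 µM by stock and volumes)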; hit rate 0.16% among 140,000; AID 898, 2007;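 active = inhibition of 50% or more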;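 also: controls were vehicle for no effect and minimum signal wells for full effect; inactives centre near -20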
Arbovirus inh: antivirals against arbovirus infection, primary screen, cell-based, full library, 10K replicate subset | inhibition, % at 10 µM | hit rate 0.37% among 200,000 | AID 1251, 2008 | arbovirus infection cell-based antiviral screen;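 active = inhibition from about 30%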;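 also: bluetongue infection of BSR cells; cell survival read as ATP light after 72 h; 0% = infected wells without compound and 100% = uninfected wells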
Arbovirus inh repeat: second read-out of Arbovirus inh, no call of its own (marks repeat the call); inhibition, %; measured here: 10K subset replicate screen; many hits read low in the repeat;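 first of two repeat runs on a subset; 0% = infected and 100% = uninfected wells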
The depositor's hits bear a star; ? = inconclusive; . = no result given. A portion of the library; count on the stated rates, not on these rows.

SMILES	Mtb H37Rv	Mtb betalactam	RecA intein inh	YopH PTP inh	Arbovirus inh	others
O=C(COC(=O)c1ccc(Cl)c(S(=O)(=O)NCc2ccccc2)c1)NCC1CCCO1 (centres undefined)	0%	1	-1.1	.	9
Cc1ccc(NCc2nnc(SCc3ccc(C#N)cc3)n2Cc2ccco2)c(C)c1	-8%	2	.	-29	-15
COc1ccc(C2/C(=C(/O)c3ccc(C)cc3)C(=O)C(=O)N2c2ccccn2)cc1 (centres undefined)	.	0	1.0	.	.
Cc1cc(Oc2ccc(C#N)cc2)nc(N2CCOCC2)n1	2%	3	2.3	19	-1
Cc1cccc(N2C(=O)N3[C@H](c4ccc(F)cc4)[C@@H]4C(=O)N(C5CCCCC5)C(=O)[C@@H]4[C@]3(Cc3ccccc3)C2=O)c1	.	-21	4.7	.	.
CNC(=O)c1sc2nc(-c3ccc(OC)cc3)cn2c1C	.	1	0.6	-37	-2	Arbovirus inh repeat=-6
Cc1cc(C)nc(N(C#N)Cc2ccccc2)n1	1%	-16	-3.8	-33	1
COCCNC(=O)C(c1ccc(C)o1)N(C(=O)c1snc(C(N)=O)c1N)c1ccc(C)cc1 (centres undefined)	-3%	8	-1.3	1	-1
COC(=O)C1(C)NC(c2cccc(C)c2)C2C(=O)N(c3ccc(F)cc3)C(=O)C21 (centres undefined)	.	-20	-1.1	.	.
CSCCC(NC(=O)c1occc1C)C(=O)O (centres undefined)	-1%	1	-2.1	-12	4
CC(=O)c1sc(NC(=O)C2(F)C(F)(F)C(F)(F)C(F)(F)C(F)(F)C2(F)F)nc1C	19%	-2	4.3	-26	-13
CN1CC(=O)N(CC(=O)Nc2ccc(Br)cc2F)C1=O	5%	7	1.3	.	0
Cc1cc(NS(=O)(=O)c2ccc(Nc3nc(-c4sc(NC(=O)c5ccccc5)nc4C)cs3)cc2)no1	-12%	11	-3.1	-5	-17
CCC(=O)Nc1ccc2c(c1)Cc1cc(NC(=O)CC)ccc1-2	.	2	-0.1	.	.
CC(=O)c1ccc(NC(=O)Cn2nc(C)c([N+](=O)[O-])c2C)cc1	2%	-1	-1.5	.	0
c1ccc(CNc2nc(N3CCOCC3)nc(N3CCOCC3)n2)cc1	5%	-9	.	-11	7
CCCCCCC1CC(=O)NC(=S)N1 (centres undefined)	-6%	-9	3.1	.	-3
Cc1ccc2[nH]c(=O)c3cc(C(=O)N4CCN(C(=O)c5ccco5)CC4)sc3c2c1	.	-2	0.6	-32	-3	Arbovirus inh repeat=0
COc1cc(CCC(=O)OCC(=O)Nc2cccc(S(=O)(=O)N(C)C)c2)cc(OC)c1OC	2%	-1	-1.3	-1	-6
CCOC(=O)CSc1cc(C(F)(F)F)nc(-c2ccccn2)n1	-7%	-3	1.5	-3	8
COc1ccc2nc(SCC(C)=O)c(C#N)cc2c1	-5%	-5	-2.2	-23	7
COCCN(C(=O)Cc1cccs1)c1nnc(-c2cccnc2)s1	5%	6	-1.0	-29	7
Cc1oc(C(C)(C)C)cc1C(=O)N1CCN(C(c2ccccc2)c2ccccc2)CC1	0%	-1	16	.	.
COc1cccc(-c2nc(CS(=O)(=O)CC(=O)NC3CC3)c(C)o2)c1	.	7	0.6	.	.
O=S(=O)(Cc1ccc(Cl)cc1)N1CCCCCC1	.	5	0.1	.	.

A stretch from further up, as a working copy:
SMILES	Mtb H37Rv	Mtb betalactam	RecA intein inh	YopH PTP inh	Arbovirus inh	others
CC(=O)c1ccc(NC(=O)Cn2nc(C)c([N+](=O)[O-])c2C)cc1	2%	-1	-1.5	.	0
c1ccc(CNc2nc(N3CCOCC3)nc(N3CCOCC3)n2)cc1	5%	-9	.	-11	7

Molecules from the list above that have a cyano group, in the order listed:
SMILES	Mtb H37Rv	Mtb betalactam	RecA intein inh	YopH PTP inh	Arbovirus inh	others
Cc1ccc(NCc2nnc(SCc3ccc(C#N)cc3)n2Cc2ccco2)c(C)c1	-8%	2	.	-29	-15
Cc1cc(Oc2ccc(C#N)cc2)nc(N2CCOCC2)n1	2%	3	2.3	19	-1
Cc1cc(C)nc(N(C#N)Cc2ccccc2)n1	1%	-16	-3.8	-33	1
COc1ccc2nc(SCC(C)=O)c(C#N)cc2c1	-5%	-5	-2.2	-23	7

Continued:
SMILES	Mtb H37Rv	Mtb betalactam	RecA intein inh	YopH PTP inh	Arbovirus inh	others
O=C(O)CCCC(=O)N1CCN(c2cccc(Cl)c2)CC1	0%	-7	-1.1	-41	-2	Arbovirus inh repeat=-8
Cc1ccc(NNC(=O)c2cc(C(C)(C)C)nn2Cc2ccccc2)cc1	68%	95	10	.	.
CCc1nc2ccc(C(=O)NCc3ccc(C)o3)cc2nc1CC	.	0	-0.1	.	.
COC(=O)c1sccc1NC(=O)CSCCc1ccccn1	2%	8	-3.0	.	2
COc1ccc(C2CC(c3ccccc3)=NN2C(=O)COC(=O)c2nc3nc(C)cc(C)n3n2)cc1 (centres undefined)	-15%	43	12	.	7
C/C(Cc1ccccc1)=N\NC(=O)CNC(=O)Cc1ccccc1	7%	-3	6.2	.	.
CC(=O)Nc1ccc(C(=O)OCC(=O)N2CCCC2)cc1	.	-5	2.0	.	.
OCCNc1nc(Nc2ccccc2)nc(Nc2ccccc2)n1	10%	8	-2.6	-16	-3	Arbovirus inh repeat=-2
O=C(Cn1nnc(-c2ccccc2)n1)N/N=C/c1ccc(-c2ccc(Cl)cc2)o1	?	91	-0.6	-22	-13
COc1ccc(-c2csc3ncn(-c4ccc(C)cc4)c(=O)c23)cc1OC	0%	-2	0.4	.	-12
COc1ccc2c(c1)CCC(C)N2S(=O)(=O)c1ccc(C2CNC(=O)C2)cc1 (centres undefined)	3%	1	3.7	-33	-2
Cc1ccnc(SCc2cn3c(C)cccc3n2)n1	0%	2	-4.2	.	11
O=C(NCC1COc2ccccc2O1)c1c[nH]c2ccc(S(=O)(=O)N3CCOCC3)cc2c1=O (centres undefined)	-1%	.	.	-44	-1
CCN(CC)CCNC1=NCCn2c1cc1cc(OC)ccc12	-5%	2	1.3	-5	-18
COc1ccc2cc(/C=N/NC(=O)c3c(Cl)cnn3C)c(Cl)nc2c1	2%	5	-4.4	-15	-2
N/C(COc1ccc(Cl)cc1)=N\NS(=O)(=O)c1ccccc1	-7%	-1	2.0	-43	6
C=CCOc1ccc(/C=N/O)cc1Cl	>100µM*	92	-5.1	-17	-7
COc1ccc(NC(=O)/C=C/c2ccc(C)o2)cc1S(=O)(=O)N1CCOCC1	1%	3	2.5	-17	-9
CCOC(=O)COc1ccc(S(=O)(=O)NC2CC2)cc1	.	4	-1.5	.	.
Cn1c(SCC(=O)NC2CCCCC2)nnc1-c1ccccc1O	.	-14	1.2	.	.
Cc1ccc(S(=O)(=O)ON2C(=O)c3cccc4cccc(c34)C2=O)cc1	-1%	-3	0.0	-29	4
Cc1ccc(C(CNS(=O)(=O)c2ccccc2)N2CCN(C)CC2)cc1 (centres undefined)	.	-8	1.1	.	.
Nc1nc(NCc2ccccc2)nc(Nc2ccc(F)cc2)c1[N+](=O)[O-]	-3%	-5	0.3	-7	-2
Cc1ccc(-c2ccc(/C=N/N3C(=O)C4C5C=CC(C6CC56)C4C3=O)o2)c([N+](=O)[O-])c1 (centres undefined)	3%	3	6.0	-24	-5
COC(=O)CCC(=O)OC1(C)C(=O)C2=CN(c3ccc(OC)cc3)C(c3ccc(OC)cc3)=CC2=C(Br)C1=O (centres undefined)	3%	9	-11	.	.

Gathered by group: the compounds so far with bromine
SMILES	Mtb H37Rv	Mtb betalactam	RecA intein inh	YopH PTP inh	Arbovirus inh	others
CN1CC(=O)N(CC(=O)Nc2ccc(Br)cc2F)C1=O	5%	7	1.3	.	0
COC(=O)CCC(=O)OC1(C)C(=O)C2=CN(c3ccc(OC)cc3)C(c3ccc(OC)cc3)=CC2=C(Br)C1=O (centres undefined)	3%	9	-11	.	.

Gathered by group: those above with fluorine.
SMILES	Mtb H37Rv	Mtb betalactam	RecA intein inh	YopH PTP inh	Arbovirus inh	others
Cc1cccc(N2C(=O)N3[C@H](c4ccc(F)cc4)[C@@H]4C(=O)N(C5CCCCC5)C(=O)[C@@H]4[C@]3(Cc3ccccc3)C2=O)c1	.	-21	4.7	.	.
COC(=O)C1(C)NC(c2cccc(C)c2)C2C(=O)N(c3ccc(F)cc3)C(=O)C21 (centres undefined)	.	-20	-1.1	.	.
CC(=O)c1sc(NC(=O)C2(F)C(F)(F)C(F)(F)C(F)(F)C(F)(F)C2(F)F)nc1C	19%	-2	4.3	-26	-13
CN1CC(=O)N(CC(=O)Nc2ccc(Br)cc2F)C1=O	5%	7	1.3	.	0
CCOC(=O)CSc1cc(C(F)(F)F)nc(-c2ccccn2)n1	-7%	-3	1.5	-3	8
Nc1nc(NCc2ccccc2)nc(Nc2ccc(F)cc2)c1[N+](=O)[O-]	-3%	-5	0.3	-7	-2

Next compounds follow.
SMILES	Mtb H37Rv	Mtb betalactam	RecA intein inh	YopH PTP inh	Arbovirus inh	others
Cc1ccnn1CC(=O)N/N=C/c1cn[nH]c1-c1ccccc1	3%	-9	1.7	.	.
Cc1ccc(NC(=O)CN2CC(C)SC2=NC2CCCCC2)cc1 (centres undefined)	2%	-5	.	-1	18
COc1cc(C2NC(=O)NC(C)=C2C(=O)OC2CCC(C)CC2)ccc1O (centres undefined)	.	-5	8.4	.	.
CCOc1ccc(NC(=O)CCNS(=O)(=O)c2cccs2)cc1	76%	-22	-0.5	-31	0
CC1NC(=O)NC1CCCCCC(=O)Nc1ccc(F)cc1 (centres undefined)	-2%	-8	1.4	.	6
CN(C)CCNC(=O)c1c(O)c2c([nH]c1=O)CCCC2	5%	-1	1.4	-44	-7
COCCOc1nc2c(c(=O)n(C)c(=O)n2C)n1CCc1ccccc1	-7%	0	0.4	-34	3
CC(=O)Nc1ccc(NC(=O)Nc2ccc(C)cc2C)cc1	8%	-4	-2.2	.	-4
CC(C)(C)N1C(=O)c2ccc(C(=O)Nc3ccc(C(=O)O)cc3)cc2C1=O	.	-12	-1.4	.	.
OCCC#Cc1ccc(CN2CCN(Cc3ccsc3)C(CCO)C2)cc1 (centres undefined)	5%	-6	2.7	.	-5
COCCSc1ccccc1C(=O)Nc1ccc([N+](=O)[O-])cc1OC	5%	2	0.7	.	-2
CCOC(=O)Cn1c2ccc(OC)cc2c2nc3ccccc3nc21	7%	2	-18	-16	-21
S=C(Nc1ccccc1Cl)NC1CCC(NC(=S)Nc2ccccc2Cl)CC1 (centres undefined)	1%	-13	-2.0	.	-2
O=C(NCC(=O)N1CCC2(CC1)NCCc1[nH]cnc12)c1ccc(Br)cc1	.	0	0.5	.	.
COc1ccc(NC(=O)CSc2nccn2Cc2ccccc2)cc1	.	-6	1.7	.	.
COc1cc2cc(C(c3nnnn3Cc3ccc(F)cc3)N3CCCCCC3)c(=O)[nH]c2cc1OC (centres undefined)	-9%	-8	-4.8	-43	7
O=C(Cc1ccc(Cl)cc1)Nc1ccccc1N1CCN(C(=O)c2ccccc2)CC1	.	5	10	.	.
CCOc1ccc(NC(=O)NC2CCCCCCC2)cc1	.	100	-0.8	.	.
CCCn1nc(-c2nnc(-c3ccc(C)c(C)c3)o2)c2ccccc2c1=O	-10%	-8	5.0	-41	4
CCCCc1nc2sc3c(SCCN(C)C)ncnc3c2c2c1CCC2	13µM*	99	19	.	.
C/[N+]([O-])=C\c1cccc(OCCN2CCN(c3ncc(C(F)(F)F)cc3Cl)CC2)c1	.	35	-3.8	.	.
COc1ccc(C2c3[nH]c4ccccc4c3C[C@H]3C(=O)N(C)CC(=O)N23)cc1OC (some centres undefined)	.	9	2.8	.	.
Cn1cnnc1SCCNS(=O)(=O)c1cccc([N+](=O)[O-])c1	.	-6	-4.4	.	.
CCCCC1(C)OC(=O)C(=Cc2ccc(N(C)C)cc2)C(=O)O1 (centres undefined)	-12%	-13	-2.6	4	2
